Bioassay records (PubChem)
Methyltransferases = Primary Screen for Target Class Profiling of Small Molecule Inhibitors of Methyltransferases; calls only at 40 µM; actives 3.9% (n = 25,000); AID 1745853, 2022; purified enzyme, MTase-Glo SAH luminescence; stronger effect = lower value; active = -50% or lower on at least one of six enzymes; inconclusive = the cases between; inactive = as a rule above -30% on all six;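 further: enzymes were COMT GAMT GNMT HNMT NNMT and PNMT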
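Each enzyme was assayed with SAM and its substrate. SAH formation detected by MTase-Glo luminescence; single-point 40 uM screen[…].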
Calls only. On the % scale 0 is the no-effect control and ±100 the full control effect. This is a subset; the hit share may differ from the screen's.

Results for CC(C)Cn1c(=O)c2ccccc2n2c(CCC(=O)N3CCN(c4ccccc4F)CC3)nnc12 ?
Methyltransferases: inconclusive

How did O=C(CC1C(=O)NCCN1CC(c1ccccc1)c1ccccc1)NCc1ccco1 (stereo unspecified) do in these assays?
Methyltransferases: inactive

Results for C[C@@H]1C(=O)OC[C@H]2C(C(=O)O)=C[C@@H]3CC(C)(C)C[C@]312 ?
Methyltransferases: inactive

Results for Cc1cc(NS(=O)(=O)c2ccc3[nH]c(=O)[nH]c3c2)ccc1Br ?
Methyltransferases: inactive

How did CC(=O)Nc1c2n(c3ccc(F)cc13)CC(C)(C(=O)NC1CCCCCC1)N(C1CCCCC1)C2=O (stereo unspecified) do in these assays?
Methyltransferases: inactive

Results for O=C1CC[C@@H](C(=O)N2CSC[C@H]2C(=O)O)N1 ?
Methyltransferases: inactive

Results for Cc1ccc(N2CCN(S(=O)(=O)c3ccc4[nH]c(=O)[nH]c4c3)CC2)c(C)c1 ?
Methyltransferases: inactive

What do the screens show for `Cc1ccc(-n2cccc2CC(=O)N2CCOCC2)cc1`?
Methyltransferases: inactive

Results for Cc1cc(C)c(S(=O)(=O)N(Cc2ccc(-c3cccc(S(C)(=O)=O)c3)cc2)Cc2ccc(C(F)(F)F)o2)c(C)c1 ?
Methyltransferases: inactive

What do the screens show for `CC(C(=O)N1CCN(c2cc(-c3ccccc3)[nH]n2)CC1)c1ccccc1` (stereo unspecified)?
Methyltransferases: inactive

Two entries drawn at random from the list so far, as already listed:
Results for O=C1CC[C@@H](C(=O)N2CSC[C@H]2C(=O)O)N1 ?
Methyltransferases: inactive

What do the screens show for `CC(C(=O)N1CCN(c2cc(-c3ccccc3)[nH]n2)CC1)c1ccccc1` (stereo unspecified)?
Methyltransferases: inactive

New compounds follow
Results for O=C1CC(c2noc(COc3ccccc3)n2)CN1C1CCCCC1 (stereo unspecified) ?
Methyltransferases: inactive

What do the screens show for `O=S(=O)(c1ccccc1)c1nnn2c1nc(NC1CC1)c1cc(Cl)ccc12`?
Methyltransferases: inactive

How did CN1C[C@H]2CN(Cc3c[nH]c4ccccc34)CCN2C1=O do in these assays?
Methyltransferases: inactive

Results for C(#Cc1nc2ncccc2nc1OCCN1CCCC1)c1ccccc1 ?
Methyltransferases: inactive

Results for CC(=O)OC1CC(=O)C2(C)C3CC4=C(OC(C)CC4=O)OC3(C)CCC2C1(C)C (stereo unspecified) ?
Methyltransferases: active

What do the screens show for `CCCSCCCNC(=O)c1cc2n(n1)CC(C)(C(=O)NCc1ccc(C)cc1)N(C)C2=O` (stereo unspecified)?
Methyltransferases: inactive

What do the screens show for `CN(Cc1noc(C2CCCC2)n1)c1cc(C2CC(O)C2)ncn1` (stereo unspecified)?
Methyltransferases: inactive

Results for Cc1noc(-c2cccs2)c1C(=O)NCc1ccccc1Cl ?
Methyltransferases: inactive

What do the screens show for `Cc1ccc(CCNC(=O)c2cc3n(n2)CC(C)(C(=O)NC2CCCC2)N(C)C3=O)cc1` (stereo unspecified)?
Methyltransferases: inactive

Results for C=C(C)C(=O)O[C@H]1[C@H]2C(=C)C(=O)O[C@@H]2C[C@@H](C)/C=C\C(=O)[C@](C)(O)[C@@H]1OC(C)=O ?
Methyltransferases: inactive

No new results follow: 7 of the compounds above.
Results for C(#Cc1nc2ncccc2nc1OCCN1CCCC1)c1ccccc1 ?
Methyltransferases: inactive

Results for CC(=O)OC1CC(=O)C2(C)C3CC4=C(OC(C)CC4=O)OC3(C)CCC2C1(C)C (stereo unspecified) ?
Methyltransferases: active

What do the screens show for `CCCSCCCNC(=O)c1cc2n(n1)CC(C)(C(=O)NCc1ccc(C)cc1)N(C)C2=O` (stereo unspecified)?
Methyltransferases: inactive

What do the screens show for `CN(Cc1noc(C2CCCC2)n1)c1cc(C2CC(O)C2)ncn1` (stereo unspecified)?
Methyltransferases: inactive

Results for Cc1noc(-c2cccs2)c1C(=O)NCc1ccccc1Cl ?
Methyltransferases: inactive

What do the screens show for `Cc1ccc(CCNC(=O)c2cc3n(n2)CC(C)(C(=O)NC2CCCC2)N(C)C3=O)cc1` (stereo unspecified)?
Methyltransferases: inactive

Results for C=C(C)C(=O)O[C@H]1[C@H]2C(=C)C(=O)O[C@@H]2C[C@@H](C)/C=C\C(=O)[C@](C)(O)[C@@H]1OC(C)=O ?
Methyltransferases: inactive

Going on with the list:
How did CNC(=O)N1CCC(C2CCN(C(=O)c3ccc4ccccc4n3)C2)CC1 (stereo unspecified) do in these assays?
Methyltransferases: inactive

How did O=C(O)C(c1ccc2c(c1)OCCO2)N1CCCN(c2ncccn2)CC1 (stereo unspecified) do in these assays?
Methyltransferases: inactive

How did Cn1ccnc1CN1C[C@@H](F)[C@@H](OCc2nc3ccccc3[nH]2)C1 do in these assays?
Methyltransferases: inactive

Results for COc1ccc(-c2nnc3n(Cc4ccc(F)cc4)c(=O)c4ccccc4n23)c(OC)c1 ?
Methyltransferases: inactive

How did Cc1cc2c(cc3n2CC(C)(C(=O)NC2CCCCCCC2)N(Cc2cccnc2)C3=O)o1 (stereo unspecified) do in these assays?
Methyltransferases: inactive

What do the screens show for `CCc1cccc(NC(=O)c2cc3n(n2)CC(C)(C(=O)NC2CCCCC2)N(C)C3=O)c1` (stereo unspecified)?
Methyltransferases: inactive

Results for Cc1ccc(NS(=O)(=O)c2ccc3[nH]c4c(c3c2)CCCC4)c(Cl)c1 ?
Methyltransferases: inactive

What do the screens show for `CC(C)S(=O)(=O)NC[C@H](C)c1ccc(NC(=O)c2cc(F)cc(F)c2)cc1`?
Methyltransferases: inactive

How did Cc1cc2c(cc3n2CC(C)(C(=O)NC2CCCCCC2)N(c2ccccc2C)C3=O)o1 (stereo unspecified) do in these assays?
Methyltransferases: inactive

How did CCCCN1C(=O)c2ccccc2C(C(=O)NC2CC2)C12CCCCC2 (stereo unspecified) do in these assays?
Methyltransferases: inactive

How did CC1CCCCC1NC(=O)C1(C)Cn2c(cc3sccc32)C(=O)N1Cc1cccc(F)c1 (stereo unspecified) do in these assays?
Methyltransferases: inactive

How did CCn1ccc(C(=O)N2CCCn3ccnc3C2c2cnn(C)c2)n1 (stereo unspecified) do in these assays?
Methyltransferases: inactive

How did COc1ccc(CNC(=O)C(C)n2ccc3cc(S(=O)(=O)N4CCCCC4)ccc32)cc1 (stereo unspecified) do in these assays?
Methyltransferases: inactive

Results for COc1ccccc1N1CCN(CC[C@@](C)(C(=O)C2CCCCC2)c2ccccc2)CC1 ?
Methyltransferases: inactive

What do the screens show for `O=C(c1ccc(-c2ccc(N3CCCCCC3)nc2)cc1)N1CCCC1`?
Methyltransferases: inactive

Results for CCCn1c(=O)c2ccc(C(=O)NC(C)CC)cc2n2c(=O)n(CC(=O)Nc3ccccc3C)nc12 (stereo unspecified) ?
Methyltransferases: inactive

What do the screens show for `COc1cccc(Cn2nc3n(CCc4ccccc4)c(=O)c4ccccc4n3c2=O)c1`?
Methyltransferases: inactive

What do the screens show for `C#CCN(C)Cc1ccccc1`?
Methyltransferases: inactive

What do the screens show for `CC(CN1C(=O)c2nc3ccccc3n2CC1(C)C(=O)NC1CCCCC1C)c1ccccc1` (stereo unspecified)?
Methyltransferases: inactive

How did COc1ccc(-n2nc3n(c2=O)CCN([S+](=O)([O-])c2c(C)noc2C)C3)cc1 do in these assays?
Methyltransferases: inactive

Results for Cc1cc2[nH]c(=O)[nH]c2cc1S(=O)(=O)N1CCN(c2ccccc2)CC1 ?
Methyltransferases: inactive

How did CCCc1ccc(-c2nc(C3CCOC3)no2)cc1 (stereo unspecified) do in these assays?
Methyltransferases: inactive

How did CCCn1c(=O)c2ccccc2n2c(=O)n(CC(=O)c3ccc(OC)c(OC)c3)nc12 do in these assays?
Methyltransferases: inactive

What do the screens show for `CCC(=O)NS(=O)(=O)c1ccc(-c2c(-c3ccccc3)noc2C)cc1`?
Methyltransferases: inconclusive

Results for Cc1ccccc1CNC(=O)c1cc2n(n1)CC(C)(C(=O)NC1CCCCCC1)N(C)C2=O (stereo unspecified) ?
Methyltransferases: inactive

How did CC(=O)Nc1cccc(-c2n[nH]c3c2CC(=O)N(CCOc2ccccc2)C3)c1 do in these assays?
Methyltransferases: inactive

What do the screens show for `CCc1ccccc1NC(=O)Cn1nc2n(C(C)C)c(=O)c3ccc(C(=O)NC(C)CC)cc3n2c1=O` (stereo unspecified)?
Methyltransferases: inactive

How did CC(C)[C@H]1CC[C@@]2(O)COC(=O)[C@H]2[C@@H]1/C=C(\CO)C(=O)O do in these assays?
Methyltransferases: inactive

What do the screens show for `CCOc1ccc(CNC(=O)c2cc3n(n2)CC(C)(C(=O)NCc2ccc(C)cc2)N(C)C3=O)cc1OC` (stereo unspecified)?
Methyltransferases: inactive

How did CC(C)CNC(=O)c1ccc2c(=O)n(C(C)C)c3nn(Cc4ccc(F)cc4)c(=O)n3c2c1 do in these assays?
Methyltransferases: inactive

Results for COc1ccc(-c2cc3n(n2)CC(C)(C(=O)NC2CCCCC2)N(C2CCCCC2)C3=O)cc1OC (stereo unspecified) ?
Methyltransferases: inactive

What do the screens show for `COCCN1Cc2sccc2N(CC(O)COc2ccc(OC)cc2)CCC1=O` (stereo unspecified)?
Methyltransferases: inactive

Results for COc1ccc(N2CCN(CCNS(=O)(=O)c3ccc4c(c3)C(C)(C)C(=O)N4C)CC2)cc1 ?
Methyltransferases: inactive

How did Cc1ccc(Cn2nc3n(CC(C)C)c(=O)c4ccc(C(=O)NC5CCCC5)cc4n3c2=O)cc1 do in these assays?
Methyltransferases: inactive

What do the screens show for `COc1ccc(CNc2cc3c(cn2)CN(C)CCN3)cc1OC`?
Methyltransferases: active

Results for CCOC(=O)c1cc2n(n1)CC(C)(C(=O)NC1CCCC1)N(Cc1cccc(C)c1)C2=O (stereo unspecified) ?
Methyltransferases: inactive

How did C=CCn1c(=O)c2ccc(C(=O)NC(C)C)cc2n2c(=O)n(CC(=O)Nc3cccc(Cl)c3)nc12 do in these assays?
Methyltransferases: inactive

How did O=C1CCCCC(C(=O)N2CCCCC2)N1 (stereo unspecified) do in these assays?
Methyltransferases: inactive

Results for OC(CN1CCN(c2cccc(Cl)c2)CC1)C(c1ccccc1)c1ccccc1 (stereo unspecified) ?
Methyltransferases: inactive

What do the screens show for `CN1C(=O)c2cc(C(=O)NC3CCCCCC3)nn2CC1(C)C(=O)NC1CCCCCC1` (stereo unspecified)?
Methyltransferases: inactive

Results for CCn1ncc(CN2CCCCCCNC(=O)[C@@H]3CCC[C@@H]32)c1C ?
Methyltransferases: inactive

What do the screens show for `O=C(Cn1ccc2cc(S(=O)(=O)N3CCCCC3)ccc21)NCc1ccccc1`?
Methyltransferases: inactive

What do the screens show for `Cc1cc(CN(C)C2CCCc3ccccc32)no1` (stereo unspecified)?
Methyltransferases: inactive

What do the screens show for `CC(=O)/C=C/C1(O)C(C)(C)CC(O)CC1(C)O` (stereo unspecified)?
Methyltransferases: inactive

How did CC1CCC(NC(=O)C2(C)Cc3ccccc3C(=O)N2Cc2cccs2)CC1 (stereo unspecified) do in these assays?
Methyltransferases: inactive

What do the screens show for `CCOC(=O)c1ccc2c(c1)C1C=CCC1C(c1ccc(F)cc1)N2` (stereo unspecified)?
Methyltransferases: inactive

Results for CC(C)CNC(=O)c1ccc2c(=O)n(C(C)C)c3nn(Cc4ccccc4F)c(=O)n3c2c1 ?
Methyltransferases: inactive

What do the screens show for `COc1ccc(N2C(=O)c3cc4occc4n3CC2(C)C(=O)NC2CCCC(C)C2C)cc1Cl` (stereo unspecified)?
Methyltransferases: inactive

How did CC(C)=CCC[C@](C)(O[C@@H]1O[C@H](CO[C@@H]2O[C@H](CO)[C@@H](O)[C@H](O)[C@H]2O)[C@@H](O)[C@H](O)[C@H]1O)[C@H]1CC[C@]2(C)[C@@H]1[C@H](O)C[C@@H]1[C@@]3(C)CC[C@H](O[C@@H]4O[C@H](CO)[C@@H](O)[C@H](O)[C@H]4O[C@@H]4O[C@H](CO)[C@@H](O)[C@H](O)[C@H]4O)C(C)(C)[C@@H]3CC[C@]12C do in these assays?
Methyltransferases: inconclusive

What do the screens show for `CC(NC1CCC2(CCNCC2)CC1)c1nc(-c2ccccn2)no1` (stereo unspecified)?
Methyltransferases: inactive

What do the screens show for `CCCn1c(=O)c2ccc(Cl)cc2n2c(=O)n(Cc3ccccc3F)nc12`?
Methyltransferases: inactive

How did Fc1cccc(Nc2ncc(-c3cncnc3)c3c2OCC3)c1 do in these assays?
Methyltransferases: inactive

How did CC(C)[C@H](CO)Nc1nc(Nc2ccc(C(=O)O)c(Cl)c2)c2ncn(C(C)C)c2n1 do in these assays?
Methyltransferases: inactive

How did COc1ccccc1N1CCN(CCCCN2C(=O)c3ccccc3C2=O)CC1 do in these assays?
Methyltransferases: inactive

How did Cc1cnc(C(=O)NC2C[C@H]3CC[C@@H](C2)N3S(=O)(=O)c2ccc(C)c(F)c2)cn1 (stereo partly specified) do in these assays?
Methyltransferases: inactive

Results for CCOc1ccc(CCN2C(=O)c3ccc(-c4ccco4)n3CC2(C)C(=O)NCc2ccccc2)cc1OCC (stereo unspecified) ?
Methyltransferases: inactive

How did CC(C)c1noc(CC2CCN(C(=O)c3cc4ccccc4[nH]3)CC2)n1 do in these assays?
Methyltransferases: inactive

What do the screens show for `Cc1ccc(N2C(=O)c3cc4sccc4n3CC2(C)C(=O)NC2CCCCCCC2)cc1` (stereo unspecified)?
Methyltransferases: inactive

How did CN(C(=O)c1cccn1C)C1CCc2nn(C)c(=O)n2CC1 (stereo unspecified) do in these assays?
Methyltransferases: inactive

How did COc1ccc(-c2ccc3nc(-c4cccc(F)c4)oc3c2)c(OC)c1OC do in these assays?
Methyltransferases: inactive

What do the screens show for `CC1(C(=O)NC2CCCCCCC2)Cn2c(cc3sccc32)C(=O)N1C1CCCC1` (stereo unspecified)?
Methyltransferases: inactive

Results for Cc1nnc2n1CCC(NC(=O)CCCc1c[nH]c3ccccc13)CC2 (stereo unspecified) ?
Methyltransferases: inactive

What do the screens show for `COC(=O)C1=CO[C@@H](O[C@@H]2O[C@H](CO)[C@@H](O)[C@H](O)[C@H]2O)[C@@H]2C(CO)=CC[C@]12O`?
Methyltransferases: inactive

Results for OCC1(Cc2ccccc2)CCCN(Cc2cn[nH]c2-c2ccc(F)cc2)C1 (stereo unspecified) ?
Methyltransferases: active
